Rango complex inh: Rango-importin beta binding inhibition; Q14974; Rango CFP/YFP FRET sensor + importin beta, 45 min; Potency, µM (titrated, usually from 92.2 µM), for the others: at the highest dose inhibition of complex formation; 340,000 compounds, 0.031% hits; AID 540263; active = rising FRET ratio curve, often small or poorly fitted; inconclusive = mostly compound fluorescence or quenching in the first reads; inactive = flat curves in all reads;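 note: potency is the fitted concentration of half-maximal effect; 0% = DMSO wells and 100% = buffer wells lacking importin beta; nearly all actives have a fitted effect of over 15% in size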
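FRET biosensor (snurportin 1 IBB flanked by EYFP and cerulean), 50 nM, with compound 5 min, then 0.125 microM importin beta in PBS, 1 mM DTT, 0.02% Tween-20, 0.1% BSA. CFP/YFP ratio read after 45 min at room temperature; pre-read flags interference.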
Rango dissoc inh: inhibition of RanGTP-driven Rango-importin beta dissociation; Potency, µM (top dose mostly 46.1 µM), without a hit: at the highest dose activity change, negative = inhibition; 340,000 compounds, 0.071% hits; Biochemical FRET Rango-importin beta, RanGTP-induced dissociation; AID 540253; active means falling FRET ratio curve, often poorly fitted, with flat reads before Ran was added; inconclusive means other falling curves, or compound fluorescence or quenching; inactive means flat or rising ratio curve;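 note: potency is the fitted concentration of half-maximal effect; % of control where 0% means no effect; nearly all actives have a fitted effect of over 45% in size; -100% = wells without RanGTP and RCC1; the record marks most hits as doubtful in a second field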
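Compounds preincubate 5 min with complex of recombinant Rango and importin beta in PBS with 1 mM DTT. Ran (0.6 uM) loaded with 2 mM GTP plus 0.2 uM RCC1 starts dissociation; FRET is recorded 45 min later.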
GLA inh pH 4.5: blocks human alpha-galactosidase A at pH 4.5; P06280; AID 1467; activity change, negative = inhibition, % at 105 µM; purified enzyme, 4-MU-alpha-Gal fluorescence, pH 4.5; 230,000 tested, under 10 active; inconclusive = small, poorly fitted or top-dose-only inhibition, or a rising curve; inactive = flat fitted curve, though single readings scatter; no compound was filed as active;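 note: 0% = full activity with enzyme and -100% = basal without enzyme; dose as in the result columns while the protocol names 77 µM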
Target sequence (P06280 whole entry, looked up): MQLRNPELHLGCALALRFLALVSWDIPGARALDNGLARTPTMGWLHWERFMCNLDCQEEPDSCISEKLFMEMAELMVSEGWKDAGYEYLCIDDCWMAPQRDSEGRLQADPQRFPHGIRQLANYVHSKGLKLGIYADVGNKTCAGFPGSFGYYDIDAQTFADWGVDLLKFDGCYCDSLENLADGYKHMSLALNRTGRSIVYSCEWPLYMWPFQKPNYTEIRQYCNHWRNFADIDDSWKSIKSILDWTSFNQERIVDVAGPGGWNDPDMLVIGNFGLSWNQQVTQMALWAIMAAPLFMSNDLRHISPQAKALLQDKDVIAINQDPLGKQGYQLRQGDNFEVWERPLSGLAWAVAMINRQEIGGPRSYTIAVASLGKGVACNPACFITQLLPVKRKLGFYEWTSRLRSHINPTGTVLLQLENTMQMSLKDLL
miR-21 FLuc: miR-21 reporter, rising signal | HeLa miR-21 FLuc reporter, luciferase, 48 h | Potency, µM (doses to about 38.3 µM), inactives show top-dose reporter change, positive = more light | 340,000 tested, under 10 active | AID 2288; active = well fitted rising curve with a large enough effect; inconclusive = small, poorly fitted or top-dose-only effect; inactive = no such curve, though single readings can be large or run the other way;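 note: % of control where 0% means no effect; miR-21 action dims this reporter so a rising signal means less miR-21 action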
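Using DMEM plus 10% FBS, HeLa miR-21-FLuc cells are incubated with test compounds (final up to about 40uM) for 48 hours; firefly luciferase signal is then imaged following reagent-mediated lysis.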
Active calls of the source: *; ? = inconclusive; · = not tested or not shown; & = joins results of further samples; [ ] = dose if it differs, or a comment. The list is partial; the hit share may differ from the screen's.

structure	Rango complex inh	Rango dissoc inh	GLA inh pH 4.5	miR-21 FLuc
Cc1cc(Cl)ccc1NC(=O)CSc1n[nH]c(N)n1	-3.5%	3%	·	·
COc1ccc(CC2(CO)COc3ccccc3C2=O)cc1 (stereo not given)	5.2%	-13%	·	·
CCN1CCN(CCCNC(=O)CCC(=O)N2CCOc3ccc(Cl)cc32)CC1	2.5%	-10%	·	-3%
CCN(c1ccccc1)S(=O)(=O)c1ccc(Oc2ccc([N+](=O)[O-])cc2)nc1	0.7%	-5%	·	·
Nc1cc(=O)[nH]c(SCC(=O)NCC2CCCO2)n1 (stereo not given)	-1.7%	3%	0	1%
Cc1ccc2sc(C)[n+](CCCS(=O)(=O)[O-])c2c1	0.6%	35%	6[21.1 µM]	1%
Cc1c(NC(=S)NCc2ccc(F)cc2)cccc1[N+](=O)[O-]	-0.9%	-5%	-10	2%
CN1CCN(C(=O)c2cc(COc3c(F)cccc3F)on2)CC1c1ccccc1 (stereo not given)	1.2%	18%	2	?

Full records, quoted from the list. Order of values: Rango complex inh	Rango dissoc inh	GLA inh pH 4.5	miR-21 FLuc
Listed for Cc1cc(Cl)ccc1NC(=O)CSc1n[nH]c(N)n1 : -3.5%	3%	·	·
Listed for CCN1CCN(CCCNC(=O)CCC(=O)N2CCOc3ccc(Cl)cc32)CC1 : 2.5%	-10%	·	-3%
Listed for CN1CCN(C(=O)c2cc(COc3c(F)cccc3F)on2)CC1c1ccccc1 (stereo not given) : 1.2%	18%	2	?

Arranged by molecular weight (rising): three of the compounds above.
structure	Rango complex inh	Rango dissoc inh	GLA inh pH 4.5	miR-21 FLuc
Nc1cc(=O)[nH]c(SCC(=O)NCC2CCCO2)n1 (stereo not given)	-1.7%	3%	0	1%
Cc1c(NC(=S)NCc2ccc(F)cc2)cccc1[N+](=O)[O-]	-0.9%	-5%	-10	2%
CN1CCN(C(=O)c2cc(COc3c(F)cccc3F)on2)CC1c1ccccc1 (stereo not given)	1.2%	18%	2	?

Continuation.
structure	Rango complex inh	Rango dissoc inh	GLA inh pH 4.5	miR-21 FLuc
S=C(NCc1ccccn1)Nc1ccc(Cl)cc1	4.4%	6%	-17	-24%
Cc1cccc(/C(N)=N/OC(=O)c2ccco2)c1	4.8%	-18%	8	-46%
Cc1cccc(C(=O)N2CCCC(Nc3ccc(C(C)C)cc3)C2)n1 (stereo not given)	0.5%	0%	·	1%
C[C@@H]1CN([C@@H](C)CO)C(=O)c2cc(NS(=O)(=O)c3cccs3)ccc2O[C@H]1CN(C)Cc1ccc(C(F)(F)F)cc1	-3.3%	-2%	·	·
Nc1c(C(=O)N2CCOCC2)sc2nc3c(cc12)CCC3	-0.2%	24%	-5	-23%
Cc1noc(C)c1S(=O)(=O)N1CCC(C(=O)NCCCN2CC(C)CC(C)C2)CC1 (stereo not given)	1.3%	8%	0	-4%
O=C(N/N=C/c1cc([N+](=O)[O-])cc([N+](=O)[O-])c1O)C(O)(c1ccccc1)c1ccccc1	6.1%	-3%	·	·
CC(NC(=O)CNC(=O)c1ccccc1F)c1ccc(-n2ccnc2)cc1 (stereo not given)	1.1%	7%	·	·
COc1ccc(-n2c(=O)[nH]c3cc(C(=O)NCCc4ccccc4)ccc3c2=O)cc1OC	-3.2%	13%	·	4%&11%
CC(C)CNC(=O)c1cccc(C(=O)NCC(C)C)c1	-4.8%	-10%	1	2%
CC(C)NC(=O)c1ccccc1-c1ccccc1	1.0%	7%	3	-3%
C/C(=N\Nc1ccc(C(F)(F)F)cn1)c1ccncc1	5.6%	48%	-7	-49%
Cc1n[nH]c(C)c1CCC(=O)N/N=C/C=C/c1ccccc1	3.2%	0%	11	-15%
CCC(C)NC(=O)COC(=O)c1cc([N+](=O)[O-])ccc1Sc1nc(C)cs1 (stereo not given)	1.8%	-15%	3	8%
Cc1ccc([N+](=O)[O-])cc1NC(=O)C(C)NS(=O)(=O)c1ccc(F)cc1 (stereo not given)	0.8%	5%	9	-2%
c1coc(CN(Cc2ccco2)c2ncnc3c2oc2ccccc23)c1	7.9%	-3%	-7	?
CCCCCC1NC(=O)NC1CCCCCC(=O)O (stereo not given)	0.7%	-12%	-1	-4%
CCN(C(=O)COC(=O)c1ccccc1Nc1ccccc1)c1c(N)n(Cc2ccccc2)c(=O)[nH]c1=O	-2.4%	-2%	·	·
COc1ccccc1N1CCN(C(=O)c2n[nH]c3ccccc23)CC1	-3.8%	3%	-28	-10%
COC(=O)c1cc(NS(=O)(=O)c2ccc3c(c2)c(=O)n(C)c(=O)n3C)cc(C(=O)OC)c1	3.0%	8%	·	-7%
CCN(CC)S(=O)(=O)c1ccc(Cl)c(OC)c1	6.1%	-2%	11	-24%
CCCCCCN(C(=O)CCCCCN1C(=O)NC(c2ccc(-c3ccccc3)cc2)C(C(=O)OCc2ccccc2)=C1C)C(C(=O)NCCCC)C1CCCCC1 (stereo not given)	·	·	3	0%
COc1ccc(CSc2nnc(C)n2N)cc1[N+](=O)[O-]	2.5%	29%	4	1%
CC(=O)c1ccc(OCC(=O)NC2CCCCCC2)cc1	0.0%	4%	·	·
O=C(CCc1ccccc1)NC1CCSC1=O (stereo not given)	-3.4%	14%	-2	-6%
CC(C)CSc1nc2ccccc2c(=O)[nH]1	-0.4%	1%	-9	-27%
Cn1cnnc1SCC(=O)NC1CCCCCC1	-3.0%	2%	·	-2%
COc1cccc(OC)c1OCC(O)CN1CCN(c2ccccc2F)CC1 (stereo not given)	0.2%	11%	·	-2%
CS/C(=N\S(=O)(=O)c1ccc(Cl)cc1)c1ccccc1	3.5%	-3%	3	1%
O=C(Nc1ccccc1Cl)c1ccccc1Cc1ccccc1	-0.5%	-9%	-1	-20%
CC(=O)OCC(=O)Nc1ccc([N+](=O)[O-])cc1Cl	-2.3%	8%	10	-6%
NC(=O)NOCc1ccc(Cl)cc1Cl	-0.1%	0%	7	-13%

2 entries from above, with values under each structure.
The line under a structure holds: Rango complex inh, Rango dissoc inh, GLA inh pH 4.5, miR-21 FLuc
- CC(=O)c1ccc(OCC(=O)NC2CCCCCC2)cc1
→ 0.0%, 4%, ·, ·
- O=C(CCc1ccccc1)NC1CCSC1=O (stereo not given)
→ -3.4%, 14%, -2, -6%

(further entries)
structure	Rango complex inh	Rango dissoc inh	GLA inh pH 4.5	miR-21 FLuc
CCCN(C(=O)c1cccc(S(=O)(=O)N2CCN(C)CC2)c1)c1c(N)n(Cc2ccccc2)c(=O)[nH]c1=O	1.7%	-14%	·	·
Cc1ccc(OC(C)C(=O)OCC(=O)Nc2sccc2C(N)=O)cc1 (stereo not given)	3.9%	0%	·	·
CCOCCCN(C(=O)Cn1nnc(-c2ccc(OC)c(OC)c2)n1)C(CC)C(=O)NC1CCCC1 (stereo not given)	3.4%	0%	-11	-13%
CCOc1ccc(CCNC(=O)C(O)c2ccccc2)cc1 (stereo not given)	-5.5%	-1%	2	-6%
CC(C)(CO)NC(=O)C12CC3CC(CC(Br)(C3)C1)C2	6.4%	20%	-3	-1%
C=CC(C)N1C(=O)S/C(=C\c2ccc(N3CCOCC3)cc2C)C1=O (stereo not given)	?	?	-14	-45%
Cc1cc(NC(=O)CSc2nnc(-c3ccco3)n2Cc2ccco2)no1	-0.7%	1%	-7	0%
Cn1cc(CN2CCCC(C(=O)c3cc(F)ccc3F)C2)c2ccccc21 (stereo not given)	-2.5%	-10%	3	-5%
CCOc1ccccc1N(CC(=O)Nc1ccccc1C(=O)NCc1ccco1)S(C)(=O)=O	-0.2%	12%	-7	-2%
CN(C(=O)COC(=O)c1ccc([N+](=O)[O-])cc1Cl)C1CCCCC1	-0.8%	-14%	-7	-5%
OCCC1CN(Cc2cccnc2)CCN1CCc1ccccc1 (stereo not given)	0.9%	19%	4	-3%
COCCCNC(=S)Nc1cc(C)c(C)cc1C	0.2%	0%	2	-1%
CCOC(=O)c1ccc(NC(=O)c2cc(=O)[nH]c3ccccc23)cc1	-2.1%	-16%	1	-21%
CCN(C(=O)COC(=O)C1CCN(S(=O)(=O)c2cccs2)CC1)c1ccccc1	0.0%	?	3	4%
COc1ccc(CCNC(=O)C2CCN(S(=O)(=O)c3ccc(-n4cnnn4)cc3)CC2)cc1OC	0.6%	-15%	-6	-1%
CNS(=O)(=O)c1cccc(C(=O)OCc2csc(-c3ccccc3)n2)c1	-0.2%	24%	-6	-29%
O=C(CCOc1cccc(Br)c1)NNC(=O)COc1ccc(F)cc1	-4.5%	0%	·	·
CCOC(=O)Cn1nc(-c2ccc(Cl)cc2)cc1N	-0.8%	-4%	-5	-38%
CN(C)c1ccc(-c2ccncc2)cc1	·	·	2	-4%
CCOc1ccccc1N1CN(Cc2ccccc2)CNC1=S	2.4%	-8%	4	-2%
Cn1c(=O)oc2cc(S(=O)(=O)NCCCN3CCCC3=O)ccc21	-2.2%	12%	1	-2%
O=C(Nc1nn[nH]n1)C12CC3CC(CC(C3)C1)C2	0.5%	-2%	5	0%
Cc1c(CCOC(=O)c2cc([N+](=O)[O-])ccc2Cl)sc[n+]1CCCCS(=O)(=O)[O-]	-2.0%	20%	-6	-2%
CCc1ccccc1SCc1noc(C(=O)NCC2CCCO2)c1C(=O)O (stereo not given)	0.1%	-3%	12	-1%
CC1(C)N=C(N)N=C(N)N1c1cccc(C(=O)O)c1	1.6%	-10%	9	-4%
CCOC(=O)CCc1c(C)c2ccc(OCc3ccc([N+](=O)[O-])cc3)cc2oc1=O	-1.9%	-2%	-4	-1%
COc1ccc(Cl)cc1C=CC=NNC(=O)c1ccncc1	4.6%	?	·	·
NC(=O)COC(=O)C1CSC2(c3ccc(F)cc3)CCC(=O)N12 (stereo not given)	0.2%	0%	·	1%
CCOc1ccc(CNC(=O)CCCC(=O)n2nc(C)c3ccccc32)cc1	-2.5%	9%	·	-3%
CC12CCC(=O)N1c1ccccc1C(=O)N2c1ccccc1 (stereo not given)	-1.6%	14%	1	-2%
Clc1cc2cccnc2c2ccccc12	-4.9%	-6%	0	-6%
COc1cc2c(cc1OC)C1c3ccc(OC)c(OC)c3OCC1(O)C2 (stereo not given)	-3.2%	9%	·	·
Cc1oc(-c2ccc3c(c2)OCCO3)cc1C(=O)O	-2.3%	0%	1	?
CCOc1ccc(Oc2ccc(Cl)cc2NC(=O)C2=COCCO2)cc1	-0.6%	5%	·	·
O=C1c2cccc3c([N+](=O)[O-])ccc(c23)C(=O)N1CC1CCCO1 (stereo not given)	?	?	-19	?
CC(C)(C)c1cc(Cl)ccc1OCCOCCN1CCCC1	0.1%	23%	·	-7%
CC1C=CCC2C(=O)N(c3cccc(C(=O)NCCc4ccccc4)c3)C(=O)C12 (stereo not given)	?	?	·	-20%
Cc1ccc(C(=O)C(C)OC(=O)Cn2c(C)csc2=O)cc1 (stereo not given)	-0.5%	-3%	·	-1%
Cc1cc(/C=C2/C(=N)N3C(c4ccccc4)=CSC3=NC2=O)c(C)n1-c1ccc(Cl)cc1	?	-24%	·	·
N#CN=C1SCCS1	?	0%	8	-9%
CCOc1ccc(CNC(=O)C2Cc3cc(S(=O)(=O)N4CCCC4)ccc3N2C(C)=O)cc1 (stereo not given)	-5.8%	10%	·	-8%
COc1ccc(/C(C)=N/N=C(N)N)c(OC)c1	5.7%	3%	0	22%
CC(C)c1nc(N2CCN(C(=O)c3ccco3)CC2)c2c3c(sc2n1)CCCC3	0.1%	9%	0	14%
CCOc1ccc(CCNC(=O)CSc2nn(-c3ccc(C)c(Cl)c3)c(=S)s2)cc1OCC	-1.0%	0%	3	-10%
Cc1ccccc1NC(=O)Cc1nc(COC(=O)C(NC(=O)c2ccccc2C)C(C)C)cs1 (stereo not given)	-3.7%	?	·	·

High-throughput results: PubChem BioAssay, National Center for Advancing Translational Sciences (NCATS)
